From PubChem BioAssay
GIV Gai3 FP = inhibitors of GIV peptide binding to Galpha-i3, primary screen, biochemical, fluorescence polarization, FITC-GIV GBA peptide, rat Galphai3 | 210,000 compounds, 0.42% hits | 90 min; stronger effect = lower value; scaled: aluminum fluoride 0%, vehicle 100% | percent of control (FP), % (concentration not given with the values);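 active = replicate mean at 85% of control or lower, very high polarization wells dropped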;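 also: wells of about 15 µL received 100 nL stock; the first replicate is given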
Target sequence (P08753 whole entry, looked up): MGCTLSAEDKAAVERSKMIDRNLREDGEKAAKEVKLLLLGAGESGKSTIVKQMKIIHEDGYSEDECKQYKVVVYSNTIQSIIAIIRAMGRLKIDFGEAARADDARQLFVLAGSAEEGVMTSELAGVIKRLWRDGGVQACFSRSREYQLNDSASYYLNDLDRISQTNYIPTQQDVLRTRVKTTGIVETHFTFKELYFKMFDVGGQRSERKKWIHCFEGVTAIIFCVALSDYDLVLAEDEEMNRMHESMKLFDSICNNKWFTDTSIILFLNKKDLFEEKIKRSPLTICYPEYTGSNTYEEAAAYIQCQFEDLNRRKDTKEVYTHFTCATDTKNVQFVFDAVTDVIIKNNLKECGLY
HCMV UL50-53 inh = inhibitors of HCMV UL50-UL53 interaction, biochemical, HTRF. HCMV UL50-UL53 nuclear egress complex (human cytomegalovirus). normalized percent inhibition. inhibition, % (test concentration not listed). 190,000 compounds, 0.15% hits. AID 1918969, 2023;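 active = both replicates at 50% or more, plus weaker picks with an unusually low signal ratio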;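 also: stock transfer was 100 nL into about 20 µL; 0% = negative control wells and 100% = wells with untagged competitor protein; inactives centre near -12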
Sa growth inh = S. aureus growth inhibition at 42 and 30 °C, primary screen, LtaS inhibitor project, RN4220, two temperatures; AID 720641, 2013; 170,000 compounds, 0.53% hits; OD600, 20 h, 42 °C; stronger effect = lower value; relative growth, % (test concentration not listed);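 active = growth at 42 °C up to 50% and 20 or more points under that at 30 °C, or under 10% at both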;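 also: 300 nL library stock went into each well; scaled to the means of positive and negative controls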
Sa growth inh second temp = second read-out of Sa growth inh, no call of its own (marks repeat the call); relative growth, %; measured here: growth at 30 °C;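 optical density after 20 h as mean of two plates; 100% = untreated growth and lower means inhibition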
An asterisk follows results filed as active; · = no result given; & = joins results of further samples.

compound | GIV Gai3 FP | HCMV UL50-53 inh | Sa growth inh | Sa growth inh second temp
CCOC(=O)C1CCCN(C(=O)Cn2c(=O)c3ccccc3n3c(=S)sc(-c4ccccc4)c23)C1 (stereo unspecified) | 106 | -32 | · | ·
Cc1ccc2nc(NC(=O)c3ccccc3F)sc2c1 | · | -2 | 88 | 86
Cc1cccc(NNC(=O)CCc2ccccc2)c1 | 102 | -22 | 97 | 93
O=C1Nc2ccccc2C1c1nc2ccccc2[nH]c1=O (stereo unspecified) | · | 9 | 86 | 94
CN(C)C(=O)c1ccc2c(c1)N(CC(=O)N1CCN(Cc3ccccc3)CC1)C(=O)CS2 | 121 | 3 | · | ·
Cc1ccc(S(=O)(=O)N2CCN(Cc3cc(=O)n4nc(-c5ccccc5Cl)sc4n3)CC2)cc1 | 101 | · | 96 | 92
CCSc1ncc(Cl)c(C(=O)Nc2ccccc2)n1 | 103 | · | 112 | 83
COc1ccc(N2C(=O)c3ccccc3NC2c2cc(OC)c(OC)c(OC)c2)cc1 (stereo unspecified) | 107 | -19 | · | ·
CN(C)C(=O)Cn1c(Cl)nc2ccccc21 | 100 | -2 | 111 | 101
CC(=O)Nc1ccc(C(=O)NCc2ccncc2)cc1 | 104 | -16 | 101 | 87
Nn1c(-c2ccco2)n[nH]c1=S | · | 5 | 104 | 99
Cc1nn(Cc2ccccc2Cl)c2sc(C(=O)N3CCc4ccccc43)cc12 | · | 4 | 108 | 100
Clc1ccc(-c2cc3c(N4CCN(C5CCCCC5)CC4)nccn3n2)cc1 | 108 | 0 | · | ·
CCn1cc(S(=O)(=O)c2ccccc2)c(=O)c2cc(F)c(N3CCN(c4ccccc4)CC3)cc21 | 105 | · | 87 | 91
CC(=O)O/N=C/c1ccc2c(c1)CCO2 | 101 | 2 | 98 | 94
CCOc1ccc(NC(=O)C2CC(=O)N(Cc3ccc4c(c3)OCO4)C(=Nc3ccc(OC)cc3)S2)cc1 (stereo unspecified) | 103 | -28 | · | ·
C/C(=N\NC(=O)c1ccc(O)cc1)c1ccc(S(=O)(=O)NCc2ccco2)cc1 | · | -18 | 98 | 99
CNC(=O)Cc1csc2ccc(C)cc12 | 105 | -14 | 114 | 89
Cc1ccc(OCc2nc(-c3ccc(C(=O)NCCc4ccc(Cl)cc4)cc3)oc2C)cc1 | 102 | · | 99 | 90
CCOC(=O)c1c(C)[nH]c(=S)c(C#N)c1-c1ccc(OC)cc1 | · | -21 | 86 | 50
O=C(Nc1nnc(-c2ccco2)o1)c1ccc(S(=O)(=O)N2CCCc3ccccc32)cc1 | 105 | -24 | 18 | 3
COC(=O)c1c(NC(=O)Cc2cccs2)sc2c1CCCC2 | 109 | 6 | 83 | 73
Cc1ccc(/C=C2/SC(=O)N(CCC(=O)Nc3c(C)n(C)n(-c4ccccc4)c3=O)C2=O)cc1 | 103 | -18 | · | ·
COc1ccc(C(=O)C(C)Sc2nc3ccccc3n2C)c(OC)c1 (stereo unspecified) | · | -38 | 96 | 97
Cc1ccc(C2=NN(S(C)(=O)=O)C(c3ccc4nccnc4c3)C2)cc1 (stereo unspecified) | 141 | · | 88 | 97

Compounds shown so far that contain two or more sulfur atoms (3):
compound | GIV Gai3 FP | HCMV UL50-53 inh | Sa growth inh | Sa growth inh second temp
CCOC(=O)C1CCCN(C(=O)Cn2c(=O)c3ccccc3n3c(=S)sc(-c4ccccc4)c23)C1 (stereo unspecified) | 106 | -32 | · | ·
Cc1ccc(S(=O)(=O)N2CCN(Cc3cc(=O)n4nc(-c5ccccc5Cl)sc4n3)CC2)cc1 | 101 | · | 96 | 92
COC(=O)c1c(NC(=O)Cc2cccs2)sc2c1CCCC2 | 109 | 6 | 83 | 73

Other records:
compound | GIV Gai3 FP | HCMV UL50-53 inh | Sa growth inh | Sa growth inh second temp
Cc1cccc(N2C(=O)CSC23C(=O)N(Cc2cccc(C(F)(F)F)c2)c2ccccc23)c1 (stereo unspecified) | 104 | · | 110 | 83
O=C(CC1N=C2c3ccccc3N=C(SCc3ccccc3F)N2C1=O)NCCc1ccccc1 (stereo unspecified) | 111 | · | 64 | 71
O=C(CSc1nc2c(c(=O)n1Cc1ccccc1)SCC2)N1CCCC1 | 102 | -44 | 88 | 87
CN(C)c1ccc(/C=C/C=C2\SC(=Nc3ccccc3)NC2=O)cc1 | 114 | -9 | · | ·
COC(=O)c1sccc1NC(=O)c1ccno1 | 103 | 2 | 93 | 89
Cc1ccc2c(c1)N(CC(=O)NCCc1ccccc1)C(=O)c1cccnc1O2 | 100 | · | 112 | 84
CC1CC(=O)c2cn3ncnc3nc2C1 (stereo unspecified) | 101 | 14 | · | ·
Cc1ccc(NS(=O)(=O)c2ccc(C)c(C(=O)OCC(=O)NCc3ccco3)c2)cc1 | · | -33 | 101 | 102
CCc1ccc(OCC(=O)N(Cc2ccco2)Cc2ccco2)cc1 | 103 | -51 | 86 | 73
COC(=O)c1ccc2c(=O)n(C3CCCCC3C)c(=S)[nH]c2c1 (stereo unspecified) | 104 | · | 102 | 77
S=C(NC1CC2CCC1C2)NN1C2CSC1CS2 (stereo unspecified) | 108 | -17 | 93 | 79
C=CCNc1ncnc2cc(OC)c(OC)cc12 | 112 | -29 | 92 | 90
Cc1ccccc1CN1CCC(N2CCCCC2)CC1 | · | 7 | 127 | 92
CCOC(=O)c1cc(S(=O)(=O)NCc2ccc(F)cc2)[nH]n1 | 110 | · | 113 | 104
COCCOC(=O)C1=C(C)NC2=C(C(=O)CC(c3ccc(Cl)cc3)C2)C1c1cccc(OC)c1OC (stereo unspecified) | 100 | -19 | · | ·
Cc1cc(C(=O)N2C(C)CCCC2C)no1 (stereo unspecified) | 100 | -6 | 104 | 80
COc1ccc(-n2ncc3c(SCC(=O)Nc4nc(C(C)(C)C)cs4)ncnc32)cc1 | 98 | -15 | · | ·
CCCn1c(SCc2csc(-c3ccccc3)n2)n[nH]c1=O | · | -24 | 82 | 96
Cc1cc2c(cc1S(=O)(=O)N1CCCC(C(=O)N(C)C3CCCCC3)C1)OCC(=O)N2 (stereo unspecified) | 98 | -22 | · | ·
CCn1c(=O)c(C)nc2cc(C(=O)NCCc3c[nH]c4ccc(Cl)cc34)ccc21 | 106 | -40 | · | ·
CC(NCc1ccc2c(c1)OCO2)C(=O)NC1CCCCC1 (stereo unspecified) | 101 | -12 | 103 | 98
COc1ccc(Cl)cc1C(=O)OCC(=O)N1CCN(C(=O)COC(=O)c2cc(Cl)ccc2OC)CC1 | · | -9 | 110 | 97
COc1ccc(NC(=O)c2sc3nc[nH]c(=O)c3c2C)cc1 | 104 | · | 112 | 94
Cc1nn(C)c2c1c(-c1ccccc1)cc(=O)n2CC(=O)NC(C)(C)C | 110 | · | 97 | 89
Cc1ccc(C(=O)c2cn(CC(=O)Nc3ccccc3)c3ccccc3c2=O)cc1 | 100 | 1 | · | ·

Part of the list above, as labelled records:
SMILES: CC1CC(=O)c2cn3ncnc3nc2C1 (stereo unspecified)
  GIV Gai3 FP: 101
  HCMV UL50-53 inh: 14
  Sa growth inh: ·
  Sa growth inh second temp: ·
SMILES: Cc1ccc(NS(=O)(=O)c2ccc(C)c(C(=O)OCC(=O)NCc3ccco3)c2)cc1
  GIV Gai3 FP: ·
  HCMV UL50-53 inh: -33
  Sa growth inh: 101
  Sa growth inh second temp: 102

Single entries from the results shown.
In HCMV UL50-53 inh, CCc1ccc(OCC(=O)N(Cc2ccco2)Cc2ccco2)cc1 has the entry -51
In HCMV UL50-53 inh, Cc1cc2c(cc1S(=O)(=O)N1CCCC(C(=O)N(C)C3CCCCC3)C1)OCC(=O)N2 (stereo unspecified) has the entry -22

(continued)
compound | GIV Gai3 FP | HCMV UL50-53 inh | Sa growth inh | Sa growth inh second temp
COc1cccc(CNS(=O)(=O)c2c(C)nc3sccn3c2=O)c1 | 102 | · | 84 | 86
O=C1C2CCCC2=NN1c1ccccc1 (stereo unspecified) | · | 2 | 94 | 95
CN1CCN(c2ccc(NC(=O)CCN3C(=O)CSc4ccccc43)cc2)CC1 | · | -5 | 98 | 104
CCOc1ccc2c(c1)cc(C(=O)N1CCCCC1)n2C | 101 | 5 | · | ·
Cc1ccc(-n2nc3c(=O)n(CCCC(=O)NCc4ccccc4F)nc(C)c3c2C)cc1 | 101 | · | 76 | 93
Cc1cccc(-c2cc3nc4c(c(NCCN(C)C)n3n2)CCC4)c1 | 107 | 14 | 109 | 101
Cc1ccc(-c2noc(CN(C3CCCCC3)S(=O)(=O)c3ccc(C)cc3)n2)cc1 | 106 | -23 | 110 | 86
COc1ccc(-c2csc(-c3nc(-c4ccc(OC)c(F)c4)cs3)n2)cc1F | 99 | -6 | · | ·
COc1ccc2[nH]c(C(=O)NCc3cccc(OC)c3OC)c(N3CCCC3=O)c2c1 | 104 | -17 | · | ·
O=C(Nc1ccccn1)C1CCCN(c2ncnc3onc(-c4ccc(F)cc4)c23)C1 (stereo unspecified) | 96 | 1 | · | ·
CCOC(=O)CCc1c(C)c2cc(Cl)c(OCC(N)=O)cc2oc1=O | 103 | -18 | 108 | 87
O=C(NCc1ccc(F)cc1)c1cc(C2CC2)on1 | 98 | -13 | 101 | 86
CC1CCCC(C)N1C(=O)CSc1nncn1C (stereo unspecified) | · | -8 | 101 | 93
COc1ccc(CNC(=O)c2ccc(Sc3ccc(Cl)cc3)c(NC(C)=O)c2)c(OC)c1 | 95 | · | 122 | 98
CCc1ccc(NC(=O)C2CCCN2S(=O)(=O)c2cccc3nsnc23)cc1 (stereo unspecified) | 104 | -69 | 92 | 97
COc1ccc(C2Nc3ccccc3C(=O)N2c2ccc(F)cc2)cc1Cn1nnc2ccccc21 (stereo unspecified) | 102 | -20 | · | ·
COc1ccc(-n2c(C)nnc2SCc2nc(-c3ccc(OC)c(OC)c3)no2)cc1 | 105 | -9 | 121 | 82
Cc1ccc2[nH]c(=O)c(-c3noc(CCC(=O)NC(C)C)n3)cc2c1 | 104 | -52 | · | ·
CCC(C(=O)Nc1cc(OC)ccc1OC)n1nc(-c2ccccc2)c2c(c1=O)CCCC2 (stereo unspecified) | 100&94 | 2&-7 | 92 | 84
CCCCN(CC)C(=O)C1CCC(CNS(=O)(=O)c2cccc3nsnc23)CC1 (stereo unspecified) | 105 | -95 | 99 | 86
O=C1CN(NC(=O)COc2ccc(Cl)cc2)C(=O)N1 | · | -26 | 87 | 90
COC(=O)c1cc(C(=O)OC)n(Cc2ccc(Cl)cc2Cl)n1 | 110 | -12 | 134 | 104
Cn1ccc2cc(S(=O)(=O)N3CCC(C(=O)NCc4ccccn4)CC3)ccc21 | 105 | -21 | · | ·
CCc1cc(C(=O)c2ccc(OC)cc2)c(NC(=O)CCC(=O)O)s1 | 97 | -90 | 67 | 65
CCOc1ccc(CCNCc2c(C)[nH]c(C)c2C(=O)O)cc1 | 106 | 0 | 98 | 86

Given as labelled records: entries from further up
smiles: CCOc1ccc2c(c1)cc(C(=O)N1CCCCC1)n2C
  GIV Gai3 FP: 101	HCMV UL50-53 inh: 5	Sa growth inh: ·	Sa growth inh second temp: ·
smiles: Cc1ccc(-n2nc3c(=O)n(CCCC(=O)NCc4ccccc4F)nc(C)c3c2C)cc1
  GIV Gai3 FP: 101	HCMV UL50-53 inh: ·	Sa growth inh: 76	Sa growth inh second temp: 93
smiles: Cc1cccc(-c2cc3nc4c(c(NCCN(C)C)n3n2)CCC4)c1
  GIV Gai3 FP: 107	HCMV UL50-53 inh: 14	Sa growth inh: 109	Sa growth inh second temp: 101
